Screens from PubChem.
eIF4H FP inh: inhibitors of RNA binding by human eIF4H; eIF4H fluorescence polarization binding assay; AID 2012; Q15056; inhibition, % at 35 µM; 0.94% of 290,000 active;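 active means 50% or more with normal probe brightness, or confirmed in later tests; inconclusive means above 50% with abnormal brightness, or retests that disagree; inactive means below 50% or failed in later tests; about a fifth of its hits are not listed in these tables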;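 further: calls also rest on retests at 20 µM and on dose response follow-up; 0% = protein and probe with vehicle and 100% = probe without protein; strong numbers were not always called active; many hits fall short of the cut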
MT1-MMP act inh: blocks activation of human MT1-MMP; P50281; HT1080 RFP-PRO-GFP cells, GFP/RFP ratio fluorescence, overnight; percent of plate control window, DMSO zero; GFP/RFP ratio change, % at 20 µM; 0.061% of 360,000 active; AID 651647;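 active means GFP/RFP ratio change of at least 30% with cell ATP level not reduced by more than half and red fluorescence within 50% of control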; further: strong numbers were not always called active
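system = RFP-PRO-GFP reporter HT1080 cells | dosing = 20 µM single dose, 1% DMSO | timing = overnight cell settling, then overnight compound exposure, 37 °C, 5% CO2 | read-out basis = GFP/RFP fluorescence ratio | controls = DMSO and RFP-L50D-GFP cell wells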
UUG fidelity: modulators of start codon recognition fidelity in yeast. S. cerevisiae UUG-firefly luciferase reporter, luminescence/redox ratio. activity score, % at 18.7 µM. 0.13% of 350,000 active. AID 602363;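 active means replicate mean at a twofold rise or more, about +100% in these data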;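 further: firefly luciferase made from a UUG start codon reports start codon fidelity; reporter light over untreated wells divided by growth signal over untreated wells; some hits fall short of that in this replicate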
CSC inhib: cancer stem cell inhibition. 1.1% of 300,000 active. inhibition, % at 7.5 µM. cancer stem cell-like cells viability, luminescence;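 active means mean at 75% or more and at least half the replicates too; inconclusive means mean and replicates disagree; tested in HMLE shEcad cells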;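 further: 0% = median of negative and 100% = median of positive control wells; the first replicate is given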
Rce1 inh: inhibitors of yeast Ras-converting enzyme. 0.27% of 290,000 active. Q03530. yeast membranes, quenched prenylated peptide cleavage fluorescence. calls only. AID 2563;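 active means fall in fluorescence gain of 50% or more versus controls, with final raw signal at or below 3038400; inconclusive means same 50% fall but final raw signal above 3038400; inactive means fall in fluorescence gain under 50%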;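 further: plate controls were neutral control wells for no effect and wells lacking membranes for full effect; tested at 10 µM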
Target sequence (Q03530 whole entry, looked up): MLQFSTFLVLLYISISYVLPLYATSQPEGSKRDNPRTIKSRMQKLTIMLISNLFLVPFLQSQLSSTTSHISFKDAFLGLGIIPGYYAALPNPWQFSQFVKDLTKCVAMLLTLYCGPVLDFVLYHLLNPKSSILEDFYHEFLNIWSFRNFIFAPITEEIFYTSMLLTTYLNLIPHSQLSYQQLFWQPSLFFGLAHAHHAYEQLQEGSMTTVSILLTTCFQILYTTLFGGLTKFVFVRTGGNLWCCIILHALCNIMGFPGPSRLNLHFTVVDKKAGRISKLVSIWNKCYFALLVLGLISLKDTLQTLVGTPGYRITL
PABP FP inh: PABP-poly(A) binding inhibition. P11940. PABP-poly(A) RNA binding, fluorescence polarization. inhibition, % at 35 µM. 1% of 290,000 active. AID 2014;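 active means 50% or more with normal probe brightness, or confirmed in later tests; inconclusive means above 50% with abnormal brightness, or retests that disagree; inactive means below 50% or failed in later tests; about a fifth of its hits are not listed in these tables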;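 further: calls also rest on retests at 20 µM and on dose response follow-up; controls were probe without protein and protein plus probe with vehicle; some compounds called inactive have numbers as strong as hits; many hits fall short of the cut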
Target sequence (P11940 whole entry, looked up): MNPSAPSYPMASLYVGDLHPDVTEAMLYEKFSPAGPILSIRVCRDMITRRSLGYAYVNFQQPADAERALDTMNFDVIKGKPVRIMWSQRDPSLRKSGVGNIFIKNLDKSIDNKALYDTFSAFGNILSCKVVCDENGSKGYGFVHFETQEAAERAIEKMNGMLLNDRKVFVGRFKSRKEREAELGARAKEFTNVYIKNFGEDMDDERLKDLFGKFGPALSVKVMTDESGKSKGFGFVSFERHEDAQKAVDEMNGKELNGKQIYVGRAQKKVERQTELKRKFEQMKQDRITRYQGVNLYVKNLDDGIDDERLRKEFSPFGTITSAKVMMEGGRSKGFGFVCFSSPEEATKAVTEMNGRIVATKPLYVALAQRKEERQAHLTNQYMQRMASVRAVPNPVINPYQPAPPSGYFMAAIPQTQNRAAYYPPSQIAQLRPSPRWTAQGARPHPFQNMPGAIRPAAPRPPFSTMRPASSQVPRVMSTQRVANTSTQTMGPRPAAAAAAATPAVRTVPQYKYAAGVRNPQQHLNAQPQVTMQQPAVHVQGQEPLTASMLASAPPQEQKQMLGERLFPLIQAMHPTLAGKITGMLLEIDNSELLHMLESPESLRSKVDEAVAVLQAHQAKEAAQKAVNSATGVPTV
Env fusion inh: blocks HIV Env-driven cell-cell fusion; HeLa-JRFL Env/CEM21 cell fusion, luciferase; inhibition, % at 12.3 µM; 1.1% of 360,000 active; AID 651610;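 active means mean replicate inhibition score of at least 50 and every replicate individually at or above 50; inconclusive means only one of the two criteria met; inactive means mean below 50 and not all replicates reaching 50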;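 further: 0% = plate neutral controls and 100% = maraviroc near 300 nM; one replicate is shown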
eIF4H FP inh retest: second read-out of eIF4H FP inh, no call of its own (marks repeat the call); inhibition, %; compound at 20 µM; confirmation average;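 mean of two retest wells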
PABP FP inh retest: recorded beside PABP FP inh, whose call it bears; inhibition, %; compound at 20 µM; confirmation repeats;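 mean of two retest wells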
MT1-MMP act inh RFP: recorded beside MT1-MMP act inh, whose call it bears; RFP signal change, %; measured here: RFP expression control read;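 0 = vehicle wells; hits needed this value within 50% of zero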
* marks the source's active call; other numbers are inactive results; i = inactive; ? = inconclusive; / = not tested or not shown. These rows are one share of the data (hit frequency here may not be typical).

SMILES	eIF4H FP inh	MT1-MMP act inh	MT1-MMP act inh RFP	UUG fidelity	CSC inhib	Rce1 inh	PABP FP inh	Env fusion inh	others
CC(C)CNC(=O)c1cccc(NC(=O)CSc2ccccc2)c1	-6.1	-2.7	6.6	/	-9.8	i	-1.0	20.6
CCc1cc2c(SCC(=O)NC3CCS(=O)(=O)C3)ncnc2s1 (stereo unspecified)	8.1	7.1	9.0	/	0.0	i	4.9	8.0
CCCCN=C1NN=C(c2cccc([N+](=O)[O-])c2)CS1	-5.6	1.4	0.5	/	-2.5	i	?	-3.1
COc1cc(C(=O)NC(C)C2CC3CCC2C3)ccc1OC(F)F (stereo unspecified)	/	18.7	-4.5	6.3	7.3	/	/	9.2
CCn1cc(-c2cc(C(=O)O)on2)c(C)n1	-1.3	-0.5	0.8	-4.1	-11.8	i	-1.6	1.6
CC(=O)c1cc(C(=O)N2CCCC(CCC(=O)N(C)CCc3ccccn3)C2)cs1 (stereo unspecified)	23.5	-0.4	3.5	-39.9	-9.6	i	-7.3	4.2
COc1cccc(-c2cnc3c(NC=O)cc(-c4cc(OC)c(OC)c(OC)c4)cn23)c1	/	7.9	-0.4	-9.6	/	/	/	-6.3
FC(F)(F)Sc1ccc(NC(=S)NCc2ccccc2)cc1	0.2	6.7	0.3	-27.7	54.2	i	-8.7	-83.8
FC(F)Oc1ccc(-c2csc(Cc3nnc4n3CCCCC4)n2)cc1	0.5	4.4	-1.7	-15.3	/	i	-3.9	/
Cc1cc(=O)[nH]c(N/N=C/c2ccc(Cl)c([N+](=O)[O-])c2)n1	1.7	5.6	0.1	/	-12.8	i	2.4	7.4
CC(C)CN(C(=O)COC(=O)CNC(=O)c1sc2ccccc2c1Cl)C1CCS(=O)(=O)C1 (stereo unspecified)	/	-1.0	1.1	13.6	-9.0	i	/	-7.8
O=C1CC(C(=O)Nc2ccccc2)S/C(=N\NC(=O)c2ccccc2Cl)N1 (stereo unspecified)	5.5	1.0	2.6	-32.9	-12.9	i	-3.7	20.1
CCOC(=O)Cn1cc(Cn2c3ccccc3c(=O)n2C(C)C)nn1	/	1.6	4.1	-17.8	/	/	/	-4.5
COC(=O)C1(CCSC)NC(c2ccc(O)cc2)C2C(=O)N(c3ccc4c(c3)OCCO4)C(=O)C21 (stereo unspecified)	-7.1	0.1	4.5	-11.4	-13.0	i	-0.5	-29.3
CCC(C)NC(=O)CN1C(=O)NC2(CCOc3ccccc32)C1=O (stereo unspecified)	-11.1	-6.1	-0.6	-6.6	5.0	i	-11.5	2.0
O=C(CN1C(=O)COc2ccc(S(=O)(=O)N3CCOCC3)cc21)Nc1cccc(Cl)c1	/	-0.5	0.4	-10.6	-10.4	i	/	1.0
COc1ccccc1C(=O)N1CCN(c2cccc(Cl)c2)CC1	14.0	-4.7	-14.2	-13.4	8.2	i	85.9	/	eIF4H FP inh retest=9.7;PABP FP inh retest=1.3
COc1ccc(N2CCN(S(=O)(=O)c3c(C)[nH]c(C)c3C(=O)N3CCCCC3)CC2)cc1	-4.0	0.3	4.3	18.9	-4.3	i	3.0	-1.0
Cc1ccc(C(C)(C)NC(=O)C2CCC(=O)N(CC3CCCCC3)C2)cc1 (stereo unspecified)	2.8	0.9	-4.1	5.2	-10.7	i	7.3	-0.4
N#Cc1ccc(OCC(=O)NCCc2ccc(S(N)(=O)=O)cc2)cc1	-0.7	8.5	4.4	2.0	0.9	i	-0.4	/
N#Cc1c(SCC(=O)O)nc(N2CCOCC2)c2c1CCCC2	-9.8	-1.0	-0.6	-10.9	-23.2	i	-3.6	12.5
COc1ccccc1N/N=C1\COC(C)(C)CC1=O	-3.6	0.3	4.7	-25.0	-10.2	i	8.3	-18.2
CC(=O)NC(Cc1ccccc1C)C(=O)NC1CCN(C(=O)c2ccc(C)cc2)CC1 (stereo unspecified)	-14.7	0.3	4.7	/	-0.7	i	3.8	-6.8
Cc1ccccc1NC(=O)c1cccnc1	-16.2	-1.0	2.8	-29.3	-2.3	i	15.0	-0.9
COc1ccc(/C=C/C(=O)N(C)C2CCS(=O)(=O)C2)cc1 (stereo unspecified)	/	2.1	0.9	-8.4	/	i	/	4.8
S=P(c1ccc(N2CCOCC2)cc1N1CCOCC1)(N1CCOCC1)N1CCOCC1	3.3	-0.4	1.9	-6.5	/	/	8.6	/
CCCn1c(SCC(=O)Nc2ccc(Cl)cn2)nnc1C1CC1	-3.9	0.3	3.1	5.5	-11.5	i	2.6	-21.0
CC1=NN(c2ccccc2)C(=O)/C1=C\c1cn(C)c2ccccc12	-12.3	0.8	0.1	-13.5	-7.9	i	54.1	-2.5	eIF4H FP inh retest=3.9;PABP FP inh retest=0.1
CC(=O)Nc1c2c(nn1-c1ccc(F)cc1)CSC2	-4.5	1.5	4.2	-2.6	7.4	i	-4.1	-4.6
COCCNC(=O)c1ccc(S(=O)(=O)N2CCCc3ccccc32)cc1	-6.0	-4.7	-3.4	14.9	-2.5	i	7.7	2.5
O=C(c1cc(Cl)cc(Cl)c1)N1CCN(c2cc(C(F)(F)F)nc3ccccc23)CC1	-5.0	-5.9	-8.5	-13.3	7.2	i	-0.2	11.0
Cc1nc(NS(=O)(=O)c2cccc([N+](=O)[O-])c2)sc1C(C)(C)C	-8.3	4.2	-6.8	3.4	-5.2	i	-8.6	4.2
COc1ccc(NC(=O)C2CCN(C(=O)c3cccs3)CC2)cc1OC	-8.5	-0.3	0.4	0.1	-4.5	i	1.2	-173.3
CC(=O)c1c(C)[nH]c(C(=O)Nc2ccc(C)c(S(=O)(=O)Nc3ccc(C)cc3C)c2)c1C	3.9	10.4	-15.3	11.2	15.0	i	4.0	-11.5
CCOc1cc(CN2CCCC(N3CCN(c4ccc(F)cc4)CC3)C2)ccc1OC (stereo unspecified)	1.6	1.2	-0.7	-15.4	15.0	i	3.5	3.2
O=C(COC(=O)/C=C/c1ccc(F)cc1)NC1CC1	/	-3.9	-0.1	-0.6	3.4	/	/	/
N#CCCN(C(=O)COC(=O)c1ccc(CNS(=O)(=O)c2ccc(F)c(Cl)c2)cc1)c1ccc(F)cc1	-0.7	4.9	1.5	/	/	i	0.4	/
O=C(N/N=C/c1c(Cl)nc2ccccn2c1=O)c1cccnc1	-3.6	-5.3	-1.0	-23.4	-5.5	i	10.4	11.1
Cc1cccc(-n2nc3c(c2NC(=O)c2ccco2)CS(=O)C3)c1C (stereo unspecified)	-4.0	2.1	1.0	/	4.5	i	-17.8	-6.9
C/C(NCc1ccccc1)=C(\C#N)C(=O)NCc1ccccc1	-3.0	-0.1	0.6	3.2	-10.5	i	-0.1	/
Cc1c(NC(=O)c2nn(CC(C)C)c(=O)c3ccccc23)c(=O)n(-c2ccccc2)n1C	/	6.7	-1.3	-24.6	/	/	/	5.8
O=C(Cc1ccc(Cl)cc1)NC1CC1	-8.6	1.2	4.2	-2.4	-6.4	i	-0.8	-9.5
COc1ccc2ccc(OCC(=O)Nc3cc(C)on3)cc2c1	/	1.0	-1.1	-5.6	-16.6	/	/	/
Cc1n[nH]c(C)c1S(=O)(=O)N1CCOCC1	0.1	4.4	9.3	-6.5	-8.4	i	-2.0	/
Cc1cccc(C(=O)NCC(=O)OCc2cc(=O)n3ccsc3n2)c1	/	-2.2	0.3	/	/	i	/	-9.6
CN(C)c1ccc(/C=N/NC(=O)C2COc3ccccc3O2)o1 (stereo unspecified)	23.6	-0.5	7.8	/	-9.5	i	-0.8	-52.6
Cc1ccc(NC(=S)NC2CC3CCC(C2)N3Cc2ccco2)c(C)c1 (stereo unspecified)	-12.8	2.8	1.4	/	-17.8	i	-4.3	-9.4
Nc1nc(=S)ss1	/	2.1	-0.4	-29.5	/	/	/	17.9
COc1ccc(C)cc1NC(=S)NN1CCN(C)CC1	1.5	1.9	5.2	/	-13.3	i	2.9	-3.2
S=c1[nH]nc([C@@H]2C[C@H]2c2ccccc2)n1-c1ccccc1Cl	10.5	1.3	-2.2	-19.9	-6.9	i	0.3	7.2
COc1ccccc1C(c1nnnn1C(C)(C)C)N1CCCc2ccccc21 (stereo unspecified)	-5.8	-15.0	-16.6	-1.0	-0.1	i	-10.0	/
CCCCC(NC(=O)c1ccccc1)C(=O)OCC(=O)N1c2ccccc2Sc2ccccc21 (stereo unspecified)	-3.2	-5.9	-1.0	-18.6	12.2	i	-5.6	-44.0
CC[C@]12c3[nH]c4cc(CCC(=O)N(C)C)ccc4c3CCN1C(=O)[C@@H](CC(=O)NCCN1CCOCC1)C[C@@H]2C(=O)N1CCN(C(=O)c2ccco2)CC1	/	2.6	3.6	0.4	/	/	/	-4.0
O=C(NCC(c1ccco1)N1CCCC1)c1cc(=O)[nH]c2ccccc12 (stereo unspecified)	/	0.8	1.1	/	2.3	/	/	5.7
Cc1ccc(CCC(=O)Nc2ccccc2C(=O)O)o1	-8.7	2.1	2.8	6.7	2.8	i	4.3	-18.6
O=C(c1cccc(S(=O)(=O)N2CCOCC2)c1)N1CCCc2ccccc21	4.7	1.8	-0.9	7.7	-6.0	i	-6.2	-7.2
O=C(OCc1ccccc1)N1CCCCC1c1c(Cl)cccc1Br (stereo unspecified)	/	4.5	-6.2	1.5	/	/	/	27.4
CC(C)c1ccc(NC(=O)Nc2nnc([C@H]3C[C@H](O)[C@@H](CO)O3)s2)cc1	/	-0.8	5.4	-11.8	/	/	/	5.6
O=C1CCC(=O)N1c1ccccc1-c1ccccc1	-1.1	1.8	2.8	-16.1	-9.1	i	-3.6	/
NC1=NC(c2ccc(Cl)cc2)C(C(=O)c2ccccc2)N1 (stereo unspecified)	-3.8	0.8	-15.4	-19.0	43.4	i	-3.1	-45.0

For convenience, part of the list above.
SMILES	eIF4H FP inh	MT1-MMP act inh	MT1-MMP act inh RFP	UUG fidelity	CSC inhib	Rce1 inh	PABP FP inh	Env fusion inh	others
COc1ccc(C)cc1NC(=S)NN1CCN(C)CC1	1.5	1.9	5.2	/	-13.3	i	2.9	-3.2
S=c1[nH]nc([C@@H]2C[C@H]2c2ccccc2)n1-c1ccccc1Cl	10.5	1.3	-2.2	-19.9	-6.9	i	0.3	7.2

Later entries:
SMILES	eIF4H FP inh	MT1-MMP act inh	MT1-MMP act inh RFP	UUG fidelity	CSC inhib	Rce1 inh	PABP FP inh	Env fusion inh	others
O=C(CN(Cc1ccccc1)C(=O)CNS(=O)(=O)c1ccc(F)cc1)NCc1ccco1	2.9	-0.7	-0.5	-9.1	-3.9	i	3.9	13.8
Nc1ccccc1-c1nnc(SCc2ccccc2F)[nH]c1=O	10.1	3.1	-15.0	-16.8	-7.4	i	8.8	/
CC(C)C1N(S(=O)(=O)c2ccccc2)CCN1S(=O)(=O)c1ccccc1	1.8	2.0	-0.5	-9.3	-2.5	i	-5.5	36.7
COc1ccc(-n2cc(C(=O)Nc3cc([N+](=O)[O-])ccc3OC)c3ccccc3c2=O)cc1	-0.6	2.6	0.3	-14.7	-10.8	i	13.1	-2.9
Cc1ccc(Nc2nc(N)nc(CN3CCN(Cc4ccc5c(c4)OCO5)CC3)n2)cc1	-4.7	4.6	3.9	-16.6	3.6	i	-13.2	/
Nc1cc(-c2ccc(Br)cc2)nn1Cc1ccccc1	-2.7	1.9	-24.9	/	/	i	-5.3	22.1
Cc1ccccc1N1CC(C(=O)Nc2nnc(SCC(=O)Nc3nccs3)s2)CC1=O (stereo unspecified)	10.1	-0.2	1.5	/	-3.9	i	5.0	/
